# YopH PTP inh = YopH (Yersinia) phosphatase inhibition | fluorescence Ex485/Em525 | 140,000 tested, 0.16% active | inhibition, %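 (about 10 µM by stock and volumes)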;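 active = inhibition of 50% or more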;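 also: controls were vehicle for no effect and minimum signal wells for full effect; inactives centre near -20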
# Arbovirus anti = arbovirus infection inhibition; AID 1251; 200,000 tested, 0.37% active; arbovirus infection cell-based antiviral screen; inhibition, % at 10 µM;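 active = inhibition from about 30%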;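 also: bluetongue infection of BSR cells; cell survival read as ATP light after 72 h; 0% = infected wells without compound and 100% = uninfected wells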
# Mtb bLac sens = beta-lactam sensitization of Mtb H37Rv. 330,000 tested, 0.27% active. inhibition, % at 25 µM. M. tuberculosis H37Rv growth with meropenem, percent inhibition; hits of this screen are not shown here. AID 434955;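 active = about 74% or more and at least 40 points above the plate without the antibiotic, then above 30% in a dose series; inconclusive = first-round hits that could not be retested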;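 also: growth measured after seven days incubation then overnight dye step; 0% = bacteria only wells and 100% = bacteria with antibiotic; twin plates without the antibiotic show which effects depend on it; some results filed as inactive read as strong as hits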
# RecA intein inh = inhibitors of M. tuberculosis RecA intein splicing. P9WHJ3. cell-free RecA intein splicing, fluorescence. inhibition, %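 (about 9 µM by stock and volumes)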. 290,000 tested, 0.75% active; in the data active = inhibition above about 30%; inconclusive = no clear call, values can overlap the other calls;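 also: 0% = vehicle wells and 100% = reference inhibitor control wells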
# Target sequence (P9WHJ3 whole entry, looked up): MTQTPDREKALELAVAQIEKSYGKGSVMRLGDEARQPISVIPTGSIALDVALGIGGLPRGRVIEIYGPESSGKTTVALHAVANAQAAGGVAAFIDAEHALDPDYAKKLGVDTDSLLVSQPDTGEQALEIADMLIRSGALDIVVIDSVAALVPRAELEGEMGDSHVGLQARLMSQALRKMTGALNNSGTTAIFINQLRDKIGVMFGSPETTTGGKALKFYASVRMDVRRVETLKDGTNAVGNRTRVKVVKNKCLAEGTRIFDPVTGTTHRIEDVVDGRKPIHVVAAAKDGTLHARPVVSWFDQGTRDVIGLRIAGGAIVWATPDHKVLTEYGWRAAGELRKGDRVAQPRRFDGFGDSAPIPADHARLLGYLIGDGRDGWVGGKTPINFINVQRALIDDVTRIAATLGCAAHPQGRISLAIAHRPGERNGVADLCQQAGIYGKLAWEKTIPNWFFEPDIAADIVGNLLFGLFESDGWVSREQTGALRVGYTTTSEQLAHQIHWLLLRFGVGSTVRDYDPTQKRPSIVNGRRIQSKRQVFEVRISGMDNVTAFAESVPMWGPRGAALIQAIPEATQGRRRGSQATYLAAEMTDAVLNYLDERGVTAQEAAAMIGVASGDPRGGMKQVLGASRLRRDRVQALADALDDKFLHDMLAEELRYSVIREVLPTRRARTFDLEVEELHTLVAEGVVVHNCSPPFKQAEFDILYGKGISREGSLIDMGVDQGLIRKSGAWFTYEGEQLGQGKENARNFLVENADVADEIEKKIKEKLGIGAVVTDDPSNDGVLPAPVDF
# Mtb growth = M. tuberculosis H37Rv growth inhibitors, H37Rv strain (AID 1626); M. tuberculosis H37Rv growth inhibition; higher % means a stronger effect; inhibition, % at 10 µM; hits with a dose series show IC50 in µM; 220,000 tested, 0.95% active;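 active = confirmed in a dose series; inconclusive = inhibition above 80% but not taken into the dose series; inactive = below 80% or under 30% at every dose of the series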;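 also: bacteria incubated seven days before Alamar blue readout; 0% = bacteria only wells and 100% = bacteria with antibiotic wells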
# Arbovirus anti repeat = second read-out of Arbovirus anti, no call of its own (marks repeat the call); inhibition, %; measured here: 10K subset replicate screen; many hits read low in the repeat;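 first of two repeat runs on a subset; 0% = infected and 100% = uninfected wells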
# * = called active by the depositor; ? = inconclusive; · = no result given.
SMILES,YopH PTP inh,Arbovirus anti,Mtb bLac sens,RecA intein inh,Mtb growth,others
CC(C)(C)OC(=O)NCC(=O)N1CCC(C(=O)O)CC1,-54,-2,-2,-0.9,2%,
CCOC(=O)c1ccc(CNCc2ccc(C)cc2)cc1,9,8,-6,-0.6,8%,
CCN(CCCNC(=O)CC1Oc2ccc(C)cc2NC1=O)Cc1ccccc1 (centres undefined),-9,-3,-1,-7.0,-8%,
O=C(CSc1nc2ccccc2s1)Nc1cc(C(=O)O)cc(C(=O)O)c1,·,6,0,-1.5,-5%,
Cc1cc(=O)c2ccc(Cl)cc2[nH]1,-30,1,-11,-5.9,-1%,
Cn1cccc1/C=N/N1CCN(Cc2ccccc2)CC1,·,·,-2,-4.6,-6%,
Cc1cc(CN2CCCC(CNC(=O)c3ccc(F)cc3)C2)cc(C)c1O (centres undefined),·,-14,1,-3.1,2%,
COc1ccccc1N1CCN(C2CCCCC2NS(=O)(=O)c2ccc(Cl)cc2)CC1 (centres undefined),·,·,24,5.7,·,
CCOc1ccc(N2CC(C(=O)Nc3nnc(SCCOC)s3)CC2=O)cc1 (centres undefined),·,·,-3,-2.4,·,
COC(=O)c1sccc1NC(=O)c1cc(-c2ccc(C)cc2)nc2ccccc12,4,-12,67,3.9,·,
COc1ccc2cc3c(N)nn(C(=O)Cc4ccccc4OC)c3nc2c1,1,-6,-6,-0.2,-1%,Arbovirus anti repeat=-10
CCn1ccnc1CNCc1ccc(OCC(O)CN(C)Cc2ccccc2)cc1 (centres undefined),·,-12,-4,0.6,2%,
Cc1onc(-c2ccccc2Cl)c1C(=O)NCc1ccc(N2CCCC2=O)cc1,13,0,-12,1.0,-13%,
COC(=O)Cn1c(C)nc2c(sc3nc(C)cc(C)c32)c1=O,15,0,-7,0.0,1%,
CC(=O)CC(=O)Nc1ccc(Cl)cn1,·,4,-13,-0.5,-5%,
O=C(CSc1ncn[nH]1)c1ccco1,-13,3,-1,-0.9,-10%,
CCOC(=O)C(=O)Nc1cc(Cl)ccc1C,-36,7,-4,0.2,-3%,
CCOC(=O)Nc1ccc(C(=O)c2ccncc2)cc1,·,·,6,-0.3,·,
O=C(Nc1ccccc1Cl)c1cc(=O)c2ccccc2o1,·,·,7,13,·,
Cc1ccc(-c2nnn(Cc3nc4ccccc4s3)n2)cc1,-5,-4,-23,·,-9%,

# Among those listed so far, eleven contain a carbonyl joined to an NH by a bond outside any ring:
SMILES,YopH PTP inh,Arbovirus anti,Mtb bLac sens,RecA intein inh,Mtb growth,others
CC(C)(C)OC(=O)NCC(=O)N1CCC(C(=O)O)CC1,-54,-2,-2,-0.9,2%,
CCN(CCCNC(=O)CC1Oc2ccc(C)cc2NC1=O)Cc1ccccc1 (centres undefined),-9,-3,-1,-7.0,-8%,
O=C(CSc1nc2ccccc2s1)Nc1cc(C(=O)O)cc(C(=O)O)c1,·,6,0,-1.5,-5%,
Cc1cc(CN2CCCC(CNC(=O)c3ccc(F)cc3)C2)cc(C)c1O (centres undefined),·,-14,1,-3.1,2%,
CCOc1ccc(N2CC(C(=O)Nc3nnc(SCCOC)s3)CC2=O)cc1 (centres undefined),·,·,-3,-2.4,·,
COC(=O)c1sccc1NC(=O)c1cc(-c2ccc(C)cc2)nc2ccccc12,4,-12,67,3.9,·,
Cc1onc(-c2ccccc2Cl)c1C(=O)NCc1ccc(N2CCCC2=O)cc1,13,0,-12,1.0,-13%,
CC(=O)CC(=O)Nc1ccc(Cl)cn1,·,4,-13,-0.5,-5%,
CCOC(=O)C(=O)Nc1cc(Cl)ccc1C,-36,7,-4,0.2,-3%,
CCOC(=O)Nc1ccc(C(=O)c2ccncc2)cc1,·,·,6,-0.3,·,
O=C(Nc1ccccc1Cl)c1cc(=O)c2ccccc2o1,·,·,7,13,·,

# (list continues)
SMILES,YopH PTP inh,Arbovirus anti,Mtb bLac sens,RecA intein inh,Mtb growth,others
COCCn1nnnc1CN1CCN(c2cccc(C(F)(F)F)c2)CC1,1,5,-1,4.0,5%,
N#C/C(=C\c1ccc(-c2ccc([N+](=O)[O-])cc2Br)o1)C(=O)N1CCN(c2ccccc2)CC1,-25,4,-7,-3.1,-8%,
C/C(=N\NC(=O)c1cccnc1)c1ccc(-n2ccnc2)cc1,·,0,0,-2.0,-5%,
COc1ccc(N=C2S/C(=C\c3ccco3)C(=O)N2CC(C)C)cc1,-34,1,-3,-1.4,-6%,
O=[N+]([O-])c1cccc(-c2nnnn2-c2cccc(F)c2)c1,·,·,-3,-1.6,·,
CC/C(O)=C(\C#N)c1nnc2n1CCCCC2,1,7,0,-0.2,-4%,
CCc1nnc(NC(=O)C2Cc3ccccc3CN2S(=O)(=O)c2ccc(C)cc2)s1 (centres undefined),-107,-18,54,2.2,-7%,
CCCCN(C)C(=O)c1oc2ccc(S(=O)(=O)N3CCCCCC3)cc2c1C,-25,-6,17,1.3,13%,
CCc1cc(CNC(=O)CCc2nnc(CCCc3ccccc3)o2)on1,·,-1,19,3.1,-6%,
O=C(COc1ccc2c3c(c(=O)oc2c1)CCCC3)NCCCN1CCCC1=O,·,·,0,-2.0,·,
N#Cc1cccnc1Oc1ccccc1,·,·,-1,0.5,-3%,
O=C(Cc1ccc(Cl)cc1Cl)Nc1ccncc1Cl,·,·,-10,1.1,·,
c1csc(-c2cc(N3CCCCC3)c3ccccc3n2)c1,·,·,80,9.5,·,
O=C(NCCCCCCNC(=O)NCc1ccco1)NCc1ccco1,5,6,-1,-0.1,·,
Cc1ccc2c(c1)N(CCC(=O)NCCCN1CCCC1)C(=O)C(C)O2 (centres undefined),·,·,2,2.6,·,
O=C(CCCC(=O)OCC(=O)NC1CCCC1)Nc1ccccn1,-1,5,-32,-5.4,2%,
Cc1nc2ccccn2c1C(=O)NC1CCCc2ccccc21 (centres undefined),·,6,-1,-0.8,-4%,
COc1ccc(/C(O)=C2\C(=O)C(=O)N(CCN(C)C)C2c2cccc(OC)c2OC)cc1Cl (centres undefined),-5,9,-10,2.2,-8%,
COc1cc(NS(=O)(=O)c2c(C)[nH]c(C)c2C(=O)N2CCCCC2)cc(OC)c1OC,·,·,8,1.4,·,
Cc1cc(C)c(S(=O)(=O)NCc2cn3ccccc3n2)c(C)c1,·,·,2,-4.2,·,
COc1ccc(CC(=O)NNC(=O)CCc2ccccc2)cc1,·,5,0,-2.0,-5%,
NCCNc1ccc([N+](=O)[O-])c(Sc2nc3ccccc3[nH]2)c1,-12,6,-5,1.4,-4%,
O=C(NCC(=O)N(c1cccnc1)C(C(=O)NC1CCCC1)c1ccccc1)c1ccco1 (centres undefined),·,-2,0,1.3,-9%,
CCC(C(=O)Nc1cccc(OC)c1)n1nc(C)c2c(C)n(-c3ccccc3)nc2c1=O (centres undefined),·,·,-3,-0.5,·,
Cc1ccc(C(=O)N2CCN(c3cc(=O)[nH]nc3-c3ccccc3)CC2)cc1,-29,4,3,-6.9,-11%,
O=C1CSC(c2ccccc2F)N1 (centres undefined),·,·,0,0.4,6%,
Cc1cc(C)n2nc(SCc3ccccc3C(=O)O)nc2n1,·,·,-10,-1.8,·,
CCOc1ccc(C(=O)N2CCN(c3ccccc3)CC2)cc1OCC,-16,9,3,0.0,-3%,
CNC(=O)c1nc(C)n(-c2cc(Cl)ccc2Cl)n1,-24,-3,-1,-1.5,3%,
C/C=C/c1ccc(OCC(O)CNCCc2ccc(OC)cc2)c(OC)c1 (centres undefined),·,·,3,0.9,·,
CC(C)CN(C(=O)CCc1ccccc1)c1c(N)n(CC(C)C)c(=O)[nH]c1=O,-20,5,?,2.4,-8%,
O=C(O)c1ccc(N=NN2CCCCCC2)cc1,-25,7,0,-8.4,-6%,
CC(NC(=O)C12CC3CC(C)(CC(C)(C3)C1)C2)c1ccncc1 (centres undefined),·,·,-4,3.2,·,
CCCC(NC(=O)c1c(C)noc1C)C12CC3CC(CC(C3)C1)C2 (centres undefined),·,1,1,-1.3,8%,
CCOc1ccccc1NC(=O)COC(=O)CCOc1cc(C)ccc1C,·,·,3,-3.8,·,
O=C(Nc1ccccc1)c1ccc(NCC2CCCO2)c(S(=O)(=O)N2CCOCC2)c1 (centres undefined),-18,3,4,-1.5,-2%,
Cc1ccc(NC(=O)CCC(=O)NNC(=O)/C=C/C(=O)O)c(C)c1,-16,-1,6,-0.9,6%,
O=C(NCC1CC1)c1cc([N+](=O)[O-])cc([N+](=O)[O-])c1,·,·,100,-1.8,·,
CCOC(=O)C1CCN(CC(C)(C)NS(=O)(=O)c2ccc(C)cc2)CC1,·,·,-10,-0.8,·,
Cn1ncc2c1ncn1nc(COc3ccc4ccccc4c3)nc21,-39,5,-7,0.5,1%,

# By substructure, those above with a nitro group on carbon.
SMILES,YopH PTP inh,Arbovirus anti,Mtb bLac sens,RecA intein inh,Mtb growth,others
N#C/C(=C\c1ccc(-c2ccc([N+](=O)[O-])cc2Br)o1)C(=O)N1CCN(c2ccccc2)CC1,-25,4,-7,-3.1,-8%,
O=[N+]([O-])c1cccc(-c2nnnn2-c2cccc(F)c2)c1,·,·,-3,-1.6,·,
NCCNc1ccc([N+](=O)[O-])c(Sc2nc3ccccc3[nH]2)c1,-12,6,-5,1.4,-4%,
O=C(NCC1CC1)c1cc([N+](=O)[O-])cc([N+](=O)[O-])c1,·,·,100,-1.8,·,

# (list continues)
SMILES,YopH PTP inh,Arbovirus anti,Mtb bLac sens,RecA intein inh,Mtb growth,others
CC1(C)CC2=C(CO1)C(=S)NC(c1ccccc1)N2CC1CCCO1 (centres undefined),·,·,-5,-0.7,-1%,
COc1ccc(C2C3=C(CC(C)(C)CC3=O)Oc3ncn(CCO)c(=N)c32)cc1OC (centres undefined),-9,3,-12,-1.6,-7%,
Cc1ccccc1NC(=S)N1CCN(c2ccccc2Cl)CC1,·,·,5,0.3,·,
O=C(c1ccccc1F)N1CCN(Cc2cccc(Cl)c2)CC1,35,0,-3,-0.6,0%,
CCOC(=O)C1CCCCN1Cc1cccc(OCc2ccccc2)c1 (centres undefined),·,·,1,8.9,·,
COC(=O)c1sccc1NC(=O)Nc1cc(C)cc(C)c1,·,·,-1,0.8,·,
COCCNC(=O)CCn1nc(-c2ccc(Cl)cc2)c2ccccc2c1=O,·,·,6,1.1,·,
Cc1cc(C(=O)CSc2ncn[nH]2)c(C)n1-c1cccc(S(=O)(=O)N2CCOCC2)c1,-16,11,3,2.6,0%,
COc1cccc([C@@H]2Oc3ccc(OC)cc3C(=O)[C@H]2OC(=O)N[C@H](C)C2CCCCC2)c1,-36,-8,95,-2.2,·,
C/C(=N\NC(=O)c1cccc(S(=O)(=O)N2CCCC2)c1)c1ccccc1F,·,·,-4,0.3,·,
O=C(Nc1cccnc1)Nc1cccc([N+](=O)[O-])c1,·,·,-4,-0.6,·,
CC(C)CNC(=O)c1ccccc1NC(=O)c1ccc(CN2CCOCC2)cc1,-18,0,-2,-0.9,-3%,
CC(C)CNC(=O)COc1cccc(C(=O)NCc2ccccc2)c1,-31,2,-2,-1.3,-4%,
CCS(=O)(=O)c1ccc(N)cc1,·,4,-1,-2.8,-5%,
C[n+]1cccc(C(=O)Nc2ccccc2)c1,·,·,-4,-2.0,·,
COCCn1c(-c2ccccc2)nc2oc3cc(OC)ccc3c(=O)c2c1=O,-6,1,9,-0.1,-4%,
CCOc1cc(C2C(C(=O)OC)=C(C)N=C3SCCC(=O)N32)ccc1OC(C)=O (centres undefined),-58,12,1,-0.6,-8%,
C/C(=N\NC(=O)Cc1ccc(O)cc1)c1cccnc1,·,·,7,1.0,·,
CCCCN(CCCNC(=O)Cn1nc(CC)n2c(cc3sc(C)cc32)c1=O)Cc1ccccc1,·,·,?,1.6,·,
COc1ccc(-n2c(COc3ccc(C)cc3)nnc2SCC(=O)O)cc1,·,·,-14,0.7,·,
COc1ccc(-n2nc(C(=O)Nc3cc(OC)c(OC)c(OC)c3)c3ccccc3c2=O)c(OC)c1,·,-5,5,-3.5,-3%,
CCOC(=O)N1CCN(C(=O)COc2ccc(Br)cc2Cl)CC1,-27,2,-2,9.5,-4%,
COc1ccc(CNC(=O)CSc2nnnn2C)cc1OC,·,2,-2,-3.1,-1%,
CCCCn1c(N)c(N(CC)C(=O)c2ccc(N(C)S(=O)(=O)c3ccc(C)cc3)cc2)c(=O)[nH]c1=O,·,·,-10,2.5,·,
CCOC(=O)C(NC(=O)c1ccccc1)(OCc1ccccc1)C(F)(F)F (centres undefined),-5,-1,-4,-1.0,10%,
CCC(C)(C)NC(=O)C(NS(=O)(=O)c1cccs1)c1ccccc1 (centres undefined),·,·,0,-1.2,·,
O=c1[nH]ncc2c3ccccc3n(Cc3ccccc3)c12,-39,3,1,2.9,-8%,
CCc1nc2ccc(C)cc2c(C(=O)NC2CCCCC2C)c1C (centres undefined),-44,0,10,-1.5,-13%,

# A portion of the library; the hit share may differ from the screen's.
